Screening results as filed in PubChem BioAssay.
NS1 inh: qHTS Assay for Inhibitors of Influenza NS1 Protein Function; S. cerevisiae slowed by influenza A NS1, growth recovery by OD600; Potency, µM (series often up to 46.1 µM), for inactives: at the top dose activity, positive = more growth; 0.4% of 270,000 active; further: actives are rising curves; nearly all actives have a fitted effect of over 50% in size
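S. cerevisiae expressing influenza A NS1, grown in glucose, washed, then diluted 1:100 into pH 6.0 -URA galactose medium with 23 nl compound. Growth recovery read as OD600; NS1-free strain serves as control.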
MARV entry inh: qHTS for inhibitors of binding or entry into cells for Marburg Virus; AID 540276, 2011; Marburg virus pseudotyped entry inhibition, cell reporter; control for the full effect not named in the record; about a third of the inactives were read at about 46 µM; 1.8% of 300,000 active; Potency, µM (titrated, usually from 37.8 µM), inactives show top-dose activity change, negative = inhibition, most hits filed as inhibitors; active = well fitted inhibition curve with a large enough effect; inconclusive = small, poorly fitted or top-dose-only effect, or effect the other way; inactive = flat fitted curve, though single readings scatter; tested in HEK293 cells; about a fifth of its hits are not listed in these tables; further: on the % scale 0 is the no-effect control and ±100 the full control effect; luciferase read-out
LASV entry inh: qHTS for Inhibitors of binding or entry into cells for Lassa Virus | Lassa virus pseudotype entry inhibition, cell reporter; control for the full effect not named in the record | Potency, µM (doses to about 37.9 µM), for inactives: at the highest dose activity change, negative = inhibition, hits mostly inhibitors | 1.2% of 300,000 active | AID 540256, 2011; active means well fitted inhibition curve with a large enough effect; inconclusive means small, poorly fitted or top-dose-only effect, or effect the other way; inactive means flat fitted curve, though single readings scatter; tested in HEK293 cells; further: on the % scale 0 is the no-effect control and ±100 the full control effect; nearly all actives have a fitted effect of over 50% in size; luciferase read-out
SARS PLpro yeast: qHTS of Yeast-based Assay for SARS-CoV PLP. S. cerevisiae expressing SARS-CoV PLpro, growth rescue; control for the full effect not named in the record. Potency, µM (titrated, usually from 32.9 µM), without a hit: at the top dose activity, positive = growth rescue. 0.19% of 330,000 active. AID 485353, 2010; further: 0% is about no effect; nearly all actives have a fitted effect of over 55% in size; growth read by luminescence after 48 h
Cruzain Triton: qHTS Assay for Promiscuous and Specific Inhibitors of Cruzain (with detergent) | purified cruzain, Z-FR-AMC fluorescence, 0.01% Triton | Potency, µM, inactives show max response, negative = inhibition, hits mostly inhibitors | 0.43% of 200,000 active | AID 1478, 2009; active means well fitted curve in the direction sought with a large enough effect; inconclusive means small, poorly fitted or top-dose-only effect, or another doubt; inactive means no such curve, though single readings can be large; an effect the other way counts as inactive or inconclusive;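 further: plate controls were neutral wells for no effect and buffer without enzyme for full effect; nearly all actives have a fitted effect of over 40% in size; top concentration of the series not given in the record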
Target sequence (P25779 123-467 limits assumed): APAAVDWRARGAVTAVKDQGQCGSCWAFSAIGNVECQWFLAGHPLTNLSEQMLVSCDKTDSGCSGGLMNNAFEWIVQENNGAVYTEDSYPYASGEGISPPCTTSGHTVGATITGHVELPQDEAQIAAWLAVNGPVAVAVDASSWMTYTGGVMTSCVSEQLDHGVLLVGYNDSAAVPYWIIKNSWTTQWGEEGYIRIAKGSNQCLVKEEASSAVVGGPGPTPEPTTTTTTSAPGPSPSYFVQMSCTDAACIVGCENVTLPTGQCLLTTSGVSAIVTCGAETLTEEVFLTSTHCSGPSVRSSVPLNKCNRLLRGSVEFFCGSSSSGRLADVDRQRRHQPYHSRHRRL
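Steps: dispense cruzain (1.5 nM final) in acetate buffer pH 5.5 with DTT and 0.01% Triton X-100; pin-transfer compounds; incubate 15 min RT; add Z-FR-AMC (2 uM final); read fluorescence every 30 s, using the 60 s intensity change.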
2A StopGo: High Throughput Screening for Foot and Mouth Disease Virus Antivirals | 1.2% of 410,000 active | Potency, µM (top dose mostly 57.9 µM), inactives show at the top dose signal change, negative = less light | human cells with a luciferase reporter of 2A StopGo recoding; control for the full effect not named in the record | AID 1159524, 2015; active = well fitted falling curve with a large enough effect; inconclusive = small, poorly fitted or top-dose-only effect; inactive = no such curve, though single readings can be large or run the other way; tested in HEK293T cells; further: on the % scale 0 is the no-effect control and ±100 the full control effect; nearly all actives have a fitted effect of over 45% in size; luciferase light after 4 h
RE007 growth inh: qHTS Assay for Inhibitors of the HIV-1 protein Vpr; S. pombe RE007 Vpr strain, BacTiter-Glo ATP luminescence, 24 h; control for the full effect not named in the record; Potency, µM (doses to about 92.2 µM), without a hit: at the top dose activity change, negative = less growth; 0.21% of 360,000 active; AID 651644, 2012; active = well fitted falling curve with a large enough effect; inconclusive = small, poorly fitted or top-dose-only effect; inactive = no such curve, though single readings can be large or run the other way;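 further: on the % scale 0 is the no-effect control and ±100 the full control effect; nearly all actives have a fitted effect of over 50% in size; the assay follows cell death caused by Vpr and the record does not say whether a fall means rescue or toxicity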
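Fission yeast strain RE007, carrying one chromosomally integrated HIV-1 vpr copy, was seeded at OD 0.01 in PMG+AL medium with 23 nL pinned compound. After 24 h at 30 °C and 99% humidity, viability was read by BacTiter-Glo luminescence.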
Cruzain noTriton: qHTS Assay for Promiscuous and Specific Inhibitors of Cruzain (without detergent). Cruzipain (Trypanosoma cruzi), P25779. AID 1476, 2009. purified cruzain, Z-FR-AMC fluorescence, no detergent. Potency, µM, without a hit: max response, negative = inhibition, hits mostly inhibitors. 2.3% of 200,000 active; active means well fitted curve in the direction sought with a large enough effect; inconclusive means small, poorly fitted or top-dose-only effect, or another doubt; inactive means no such curve, though single readings can be large; an effect the other way counts as inactive or inconclusive;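 further: plate controls were enzyme without inhibitor for no effect and buffer without enzyme for full effect; nearly all actives have a fitted effect of over 40% in size; top concentration of the series not given in the record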
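Purified cruzain at 1.5 nM, pre-incubated 15 min with compound at room temperature in 100 mM sodium acetate pH 5.5, 5 mM DTT, 0.00005% Triton X-100. Reaction started with 2 uM Z-FR-AMC; AMC fluorescence increase over 60 s gives rate.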
* marks the source's active call; other numbers are inactive results; ? = inconclusive; . = not tested or not shown; & = joins results of further samples; [ ] = dose if it differs, or a comment. Unless noted, the call rests on the fitted dose curve; in most records, active means well fitted rising curve with a large enough effect; inconclusive means small, poorly fitted or top-dose-only effect; inactive means no such curve, though single readings can be large or run the other way. Potency means the concentration at half of the fitted maximal effect.

SMILES	NS1 inh	MARV entry inh	LASV entry inh	SARS PLpro yeast	Cruzain Triton	2A StopGo	RE007 growth inh	Cruzain noTriton
Cc1ccc(/C=C/C(=O)c2ccccc2O)cc1	-9%	?	19%	2%	.	-18%	-11%	.
O=C(COc1cc(O)c2c(=O)cc(-c3ccccc3)oc2c1)c1ccc(F)cc1	-4%	-13%	-2%	-2%	-4.0%	-3%	15%	13µM*
N#Cc1c(N)c2ccccn2c1C(=O)c1ccc(Br)cc1	-4%	.	.	-4%	.	-8%	1%	.
CCCS(=O)(=O)c1c(S(=O)(=O)CCC)c2cc(CC)ccn2c1C(=O)c1ccc(OC)cc1	.	16%[46.1 µM]	-16%[46.1 µM]	.	-4.7%	-17%	.	-5%
CC(Cc1ccccc1)C(=O)N[C@@H](CO)Cc1ccccc1 (stereo not given in full)	6%	-25%	4%	-10%	-1.1%&-1.0%	1%	2%	0%&-6%
CCN(CC)C(=O)CSc1nnc(CNc2ccc(F)cc2)n1Cc1ccco1	5%	-28%[46.1 µM]	-2%	-3%	3.5%	-26%	14%	27%
O=C1c2cccc3c(Cl)ccc(c23)C(=O)N1O	-79%	-10%	-18%	2%	0.4%	.	?	6%
N#Cc1ccccc1CSc1nc(N2CCCCC2)nc(N2CCCCC2)n1	1%	?	?	1%	-1.1%	?	3%	-24%
O=C(CSc1ccccc1)Nc1nccs1	.	13%[46.1 µM]	30%[46.1 µM]	3%	.	20%	-6%	.
COc1ccc(-c2cc(C(=O)NCCCN3CCOCC3)on2)cc1OC	8%	?	2%[46.1 µM]	7%	.	-5%	-5%	.
COCCNC(=O)c1ccc2c(c1)NC(=O)CS2	-11%	-2%	0%	-3%	4.0%	-2%	-6%	4%
COc1ccc(OC)c(N2C(=O)c3cccnc3C2=O)c1	-7%	7%[46.1 µM]	-1%[46.1 µM]	5%	.	-3%	5%	.

Retrieved one by one from above, 3 records:
SMILES	NS1 inh	MARV entry inh	LASV entry inh	SARS PLpro yeast	Cruzain Triton	2A StopGo	RE007 growth inh	Cruzain noTriton
N#Cc1c(N)c2ccccn2c1C(=O)c1ccc(Br)cc1	-4%	.	.	-4%	.	-8%	1%	.
COc1ccc(OC)c(N2C(=O)c3cccnc3C2=O)c1	-7%	7%[46.1 µM]	-1%[46.1 µM]	5%	.	-3%	5%	.
CCCS(=O)(=O)c1c(S(=O)(=O)CCC)c2cc(CC)ccn2c1C(=O)c1ccc(OC)cc1	.	16%[46.1 µM]	-16%[46.1 µM]	.	-4.7%	-17%	.	-5%

The list continues:
SMILES	NS1 inh	MARV entry inh	LASV entry inh	SARS PLpro yeast	Cruzain Triton	2A StopGo	RE007 growth inh	Cruzain noTriton
NS(=O)(=O)c1ccc(NC(=S)Nc2ccc(C(=O)N3CCCCC3)cc2)cc1	.	7%[46.1 µM]	8%[46.1 µM]	0%	.	-15%	-8%	.
Cc1onc(-c2ccccc2)c1C(=O)Nc1ccccc1NC(=O)c1c(-c2ccccc2)noc1C	0%	-1%	?	?	.	-18%	2%	.
Cc1oc(-c2ccccc2F)nc1CS(=O)(=O)CC(=O)NC1CCCC1	-2%	.	.	10%	-0.3%	0%	2%	-8%
CN(C)/C=N/c1c(C#N)cnn1C	2%	-3%[46.1 µM]	22%[46.1 µM]	1%	.	-7%	-9%	.
CCOC(=O)c1ccc(N2CCN(C(C)=O)CC2)c(NC(=O)c2cccnc2)c1	3%	?	23%[46.1 µM]	0%	.	-8%	1%	.
c1ccc(-c2nnsc2-c2ncc[nH]2)cc1	4%	?	11%	1%	.	-8%	-10%	.
CCOC(=O)C1=C(C)NC(=S)NC1c1ccco1 (stereo not given)	0%	16%[46.1 µM]	-2%[46.1 µM]	-1%	.	-21%	25%	.
CCOc1ccc(CCNS(=O)(=O)c2ccc3c(c2)N(C(C)=O)CCO3)cc1OCC	-5%	.	.	9%	.	24%	0%	.
Cc1ccc(-c2nc(CS(=O)(=O)CC(=O)NCc3cccc(F)c3)c(C)o2)cc1	0%	.	.	8%	.	2%	0%	.
Brc1ccc(-c2noc(CCc3ccccc3)n2)o1	-69%	.	.	3%	2.9%	62%[activator]	12%	11%
CCOC(=O)c1ccc(-c2ccc(C(=O)Nc3cccnc3)o2)cc1	-37%	-3%	-10%	-8%	-12%	?	6%	9%
O=C1C(Cl)=C(NCCCO)C(=O)c2ccccc21	-49%	?	-18%	-10%	-9.3%	?	?	-5%

Look-ups from above.
`N#Cc1c(N)c2ccccn2c1C(=O)c1ccc(Br)cc1` in 2A StopGo is entered as -8%
`Brc1ccc(-c2noc(CCc3ccccc3)n2)o1` in Cruzain Triton is entered as 2.9%
`NS(=O)(=O)c1ccc(NC(=S)Nc2ccc(C(=O)N3CCCCC3)cc2)cc1` in MARV entry inh is entered as 7%[46.1 µM]
`O=C1C(Cl)=C(NCCCO)C(=O)c2ccccc21` in Cruzain Triton is entered as -9.3%

Remaining list, next part
SMILES	NS1 inh	MARV entry inh	LASV entry inh	SARS PLpro yeast	Cruzain Triton	2A StopGo	RE007 growth inh	Cruzain noTriton
CC1(C)O[C@H]2OC([C@H](O)CON3C(=O)c4ccccc4C3=O)[C@H](O)[C@H]2O1 (stereo not given in full)	6%	-10%	7%	15%	2.2%	-5%	-2%	-4%
CCC(C(=O)Nc1ccc(C(=O)O)cc1NC(=O)C(CC)c1ccccc1)c1ccccc1 (stereo not given)	11µM*	.	.	9%	.	-8%	8%	.
Fc1ccc(CSc2nnc(-c3ccco3)o2)cc1	-39%	.	.	-3%	.	62%[activator]	-8%	.
CCOc1cccc(-c2c(C(=O)N/N=C/c3c(F)cccc3Cl)nnn2-c2nonc2N)c1	-20%	26%[46.1 µM]	-21%[46.1 µM]	3%	.	6%	-6%	.
O=C(CNC(=O)Cc1ccccc1)NCC(=O)OCC(=O)c1cccc2ccccc12	-7%	3%&3%	-1%	-2%	0.9%	2%	-1%	-16%
Cc1ccc(C(=O)O)cc1NC1(c2ccccc2)C(=O)c2ccccc2C1=O	.	.	4%[46.1 µM]	.	-2.4%	-13%	.	-9%
COc1cc(OC)cc(C(=O)N2CC(=O)Nc3ccccc32)c1	13%	?	-11%	-5%	.	-9%	-5%	.
FC(F)Oc1ccc(-c2csc(NNC3=NCCCCC3)n2)cc1	.	?	?	-4%	.	28µM*	-8%	.
CCN(CC)S(=O)(=O)c1ccc(NC(=O)c2cc3ccc4cccnc4c3[nH]2)cc1	.	.	10%[46.1 µM]	.	-12%	-25%	.	-26%
N/C(COc1cccc(Cl)c1)=N\O	-1%	14%	8%	-4%	.	-5%	13%	.
Cc1ccc(-c2ccc(=O)n(CC(=O)Nc3ccc(C(C)C)cc3)n2)cc1	.	6%[46.1 µM]	16%[46.1 µM]	.	-12%	-25%	.	-5%
CCCc1cc(=O)[nH]c(SCC(=O)N(C)CC(=O)Nc2ccc(C)cc2)n1	4%	-1%	-6%	-2%	-11%	-8%	8%	-7%
CNS(=O)(=O)c1cc(NC(=O)c2cncn2-c2ccccc2)ccc1C	6%	?	14%[46.1 µM]	-2%	.	60%[activator]	8%	.
CCCCC(CC)CNC(=O)C1CCN(S(=O)(=O)c2cccc3nsnc23)CC1 (stereo not given)	.	1%[46.1 µM]	2%[46.1 µM]	.	-2.0%	-7%	.	-12%
Cc1ccc(NCSc2ccc(Cl)cc2)cc1	.	9%[46.1 µM]	20%[46.1 µM]	.	.	28%	26%	.
CCN1CCN(c2ccc(S(=O)(=O)N3CCCCC3)cc2NC(=O)c2cc3ccccc3o2)CC1	.	?	22%	4%	.	-18%	1%	.
O=C(O)c1ccccc1-c1ccccc1C(=O)Nc1nc2ccccc2s1	18%	13%	3%	1%	.	15%	-4%	.
Cc1cnc(C(=O)OCC(=O)Nc2cc(Cl)ccc2C#N)cn1	.	13%	11%	15%	.	-15%	16%	.
Cn1c(SCC(=O)Nc2ccc3cn[nH]c3c2)nnc1-c1cccs1	-1%	?	-10%	14%	2.9%	-19%	2%	-1%
Cc1ccc(CNC(=O)C2CCN(S(=O)(=O)c3c(C)noc3/C=C/c3ccco3)CC2)cc1	-10%	-4%	.	7%	-3.9%	-23%	4%	-15%
c1cc2nc(C34CC5CC(CC(C5)C3)C4)[nH]c2cn1	7%	21%	9%	11%	-4.1%	-20%	3%	8%
COc1cccc(C2C(C#N)=C(N)Oc3cc(C)n(Cc4ccco4)c(=O)c32)c1 (stereo not given)	-10%	-16%	-13%	4%	1.4%	12%	1%	-1%
CCOc1ccccc1CN1C(=O)c2ccccc2C1C(=O)NC(C)CC (stereo not given)	-1%	6%	2%	17%	3.3%	22%	-9%	5%
O=C(Cn1c(=O)n(Cc2nc(-c3ccccc3)no2)c(=O)c2cc3c(cc21)OCO3)Nc1ccc(Cl)cc1	.	.	17%[46.1 µM]	.	-3.9%	3%	.	10µM*
Cc1cc(C)nc(NC2=NCC(=O)N2c2ccccc2Br)n1	-4%	.	.	-10%	-0.2%	-25%	0%	4%
CC(C)(C)CC(=O)Nc1nnc(SCC(=O)NCc2cccs2)s1	2%	6%	-8%	0%	.	2%	19%	.
Cn1c(=NC(=O)c2ccc(S(=O)(=O)N3CCCc4ccccc43)cc2)sc2cc(S(C)(=O)=O)ccc21	12%	4%	3%	?	-5.5%	-18%	3%	-11%
Cc1ccc(C(=O)C(C)OC(=O)Cn2cnc3c2c(=O)n(C)c(=O)n3C)cc1 (stereo not given)	.	?	22%	-1%	.	-29%	-6%	.
Oc1ccc(N=Nc2ccccc2-c2nn[nH]n2)c(O)c1	-1%	.	.	?	.	-7%	-20%	.
CN(Cc1cc([N+](=O)[O-])c2cccnc2c1O)C1CCCCC1	11%	-1%	8%	7%	2.8%	.	.	0%
Cc1ccc(-n2c(SCCN)nnc2-c2cccc(C)c2)cc1	0%	.	.	-1%	.	-16%	3%	.
